VACV E9 pol inh: inhibitors of vaccinia virus processive DNA synthesis (E9 polymerase) | AID 493162 | normalized absorbance, % (concentration not given with the values) | hit rate 0.94% among 46,000 | in vitro processive DNA synthesis, absorbance read-out; active compounds read low; some inactives read as strong as hits;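 active = replicate mean up to 90% and picked by the depositor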;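 also: 100% = median of the test wells of a plate; 100 nL library stock went into each well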
Numbers without * were called inactive; & = joins results of further samples.

SMILES	VACV E9 pol inh
CCCCN(C)C(=O)c1cc2cc3ccc(OC)cc3nc2o1	93
CC(C)NC(=O)c1cccc2cccc(Sc3ccccc3)c12	109
CC(Oc1ccc(Cl)cc1)c1ccnc2c(C#N)cnn12 (centres undefined)	98
CCSC1=N/C(=C\c2ccc(C)s2)C(=O)S1	100
c1ccc(-c2nnc(SCc3cn4ccccc4n3)o2)cc1	112
CCCN(CCC)S(=O)(=O)c1c[nH]c(C(=O)OC)c1	110
CC(C)CNc1ncnc2c1sc1nc(C(C)C)c3c(c12)CC(C)(C)OC3	96
Cc1ccc(C(=O)N/C(=C\c2ccco2)C(=O)NCc2ccco2)cc1	102
COCCn1c(-c2ccc(C(C)(C)C)cc2)n[nH]c1=S	101
O=C(/C=C/c1ccco1)Nc1nc(-c2ccc3c(c2)OCO3)cs1	98
CN(Cc1ccccc1)C(=O)COC(=O)c1ccc(Cl)c(N)c1	104
C=C(C)Oc1ccccc1OCC(=O)C(C)(C)C	106
Cc1cc(C)c(S(=O)(=O)NC(CC(=O)O)c2ccccc2)c(C)c1 (centres undefined)	99
Cc1cc(Nc2ccccc2)nn1C(=O)c1ccccc1	97
CC(=O)NCCn1c(SCC(=O)NCc2ccccc2)nc2ccccc2c1=O	98
O=C(CSc1nnnn1Cc1ccccc1)Nc1ccccc1Oc1ccccc1	100
CCCC1CCC(c2ccc(OC(=O)c3cccnc3)cc2)CC1 (centres undefined)	99
CCn1cc(C(=O)NCCC2=CCCCC2)c2cc(OC)c(OC)cc2c1=O	109
c1ccc(-c2[nH]ncc2CNCc2cccs2)cc1	111
Cc1cccc(NC(=O)CCOc2ccccc2)c1	100
Cn1cnc2c1c(=O)[nH]c(=O)n2C	100
O=C(c1cccs1)N1CCN(c2cc(C(F)(F)F)nc3ccccc23)CC1	87
CN(C)/C=C/C(=N)SCc1c(Cl)cccc1Cl	103
Cc1nc2c3ccccc3n3c(CCCC(=O)O)nnc3n2n1	102
CN(CCC#N)C(=O)c1nn(C)c2c1COc1ccccc1-2	95
CCCn1c(=O)c(-c2nc3ccccc3c(=O)[nH]2)c(O)c2ccccc21	99
CSc1nnc(NC(=O)c2cc3ccccc3oc2=O)s1	93
O=P(O)(CN1CCOCC1)C1Cc2ccccc2C1	82
Cn1ncc(I)c1C(=O)O	101
CCOC(=O)c1ccc(NC(=S)NC(C)c2ccc3c(c2)OCCO3)cc1 (centres undefined)	101

Next section; it opens with the four that closed the last part.
SMILES	VACV E9 pol inh
CSc1nnc(NC(=O)c2cc3ccccc3oc2=O)s1	93
O=P(O)(CN1CCOCC1)C1Cc2ccccc2C1	82
Cn1ncc(I)c1C(=O)O	101
CCOC(=O)c1ccc(NC(=S)NC(C)c2ccc3c(c2)OCCO3)cc1 (centres undefined)	101
CC1CCCC(C)N1C(=O)COC(=O)c1ccccc1O (centres undefined)	110
CCOc1ccc(-c2nnc(N3CCCCC3)c3ccccc23)cc1	100
O=C(COC(=O)c1cccc(O)c1)c1cccc(C(F)(F)F)c1	99
CCc1cc(C(=O)Cc2nc3ccccc3[nH]2)c(O)cc1O	95
O=C(CCCN1C(=O)CSc2ncccc21)N1CCc2ccccc21	102
CCOC(=O)c1ccc(N=Cc2ccc(Cl)cc2)cc1	101
O=C(NCc1ccccc1)NS(=O)(=O)c1ccccc1Cl	100
CCC(C(=O)NC1CCCc2ccccc21)n1nc(C)n2c(cc3sccc32)c1=O (centres undefined)	101
N#Cc1sc2nc3ccccc3n2c1/N=C/N1CCOCC1	82
O=S(=O)(c1cccs1)N1CCCc2ccccc21	102

Reprinted at random: 6 records from the list, in no set order.
SMILES	VACV E9 pol inh
CCC(C(=O)NC1CCCc2ccccc21)n1nc(C)n2c(cc3sccc32)c1=O (centres undefined)	101
CCc1cc(C(=O)Cc2nc3ccccc3[nH]2)c(O)cc1O	95
CC1CCCC(C)N1C(=O)COC(=O)c1ccccc1O (centres undefined)	110
CCOc1ccc(-c2nnc(N3CCCCC3)c3ccccc23)cc1	100
CCOC(=O)c1ccc(N=Cc2ccc(Cl)cc2)cc1	101
O=C(COC(=O)c1cccc(O)c1)c1cccc(C(F)(F)F)c1	99

Further compounds.
SMILES	VACV E9 pol inh
COc1ccc(NCc2ccccc2O)cc1	100
Cc1ccnc(NC(=O)CCNS(=O)(=O)c2ccc3c(c2)c(=O)n(C)c(=O)n3C)c1	104
CCN(CC)c1ncnc2c1cnn2-c1cccc(C)c1	100
CCOC(=O)C1=C(C(=O)c2ccccc2)C2(C(=O)Nc3ccccc32)C(C#N)=C(N)O1 (centres undefined)	98
CCCCCCCCCCC/C=C\C(C)(C)/C=C\CCCC(=O)O	99
CCCN1C(=O)SC(CC(=O)Nc2cccc3ccccc23)C1=O (centres undefined)	100
CCOC(=O)N1CCC(NC(=O)c2c(C)nn(-c3ccccc3)c2-n2cccc2)CC1	99
O=C(Oc1ccccc1)n1c(=O)oc2ccc(Cl)cc21	100
COC(=O)C(Cc1c[nH]c2ccccc12)N=Cc1cc(Cl)cc(Cl)c1O (centres undefined)	98
O=C(c1ccccc1)c1nn(-c2ccc(C(F)(F)F)cc2)ccc1=O	99
CC(CNC(=S)Nc1cccc(Cl)c1)CSc1ccc(Cl)cc1 (centres undefined)	108
CC(NC(=O)Cn1cc(C(=O)C2CCCCC2)c2ccccc21)c1ccccc1 (centres undefined)	97
CC(c1ccco1)N(C(=O)C1CC1)c1ccccn1 (centres undefined)	99
CC(=O)NC(C)c1ccccc1 (centres undefined)	99
CCCS(=O)(=O)c1c(S(=O)(=O)CCC)c2cc(CC)ccn2c1C(=O)c1ccc(F)cc1	100
O=C1CSc2ccc(C(=O)N3CCN(c4cccc(C(F)(F)F)c4)CC3)cc2N1	106
CC(C)(C)N=c1scc(-c2ccccc2)n1-c1ccccc1	83
CC(=O)Oc1ccccc1C(=O)N1CC(C)CC(C)C1 (centres undefined)	97
O=C(Nc1nc2ccccc2s1)C(F)(F)F	94
CCOC(=O)c1oc2ccc(S(=O)(=O)N3CCOCC3)cc2c1C	105
Cc1ccc(Oc2cc(C#N)c3ccccc3n2)cc1C	101
Cc1cccc(NC(=O)c2cc(=O)[nH]c3ccccc23)c1	102
C=CCSc1n[nH]c(-c2ccc(C(F)(F)F)cc2)n1	98
O=C(O)CCN1CCn2c1nc1ccccc12	100
S=C(SCc1ccc(CSC(=S)N2CCOCC2)cc1)N1CCOCC1	100
COc1ccc2[nH]c(=O)c(C(=O)O)cc2c1	99
Cc1c(C(=O)Cc2ccccc2)n(C)c2ccccc12	101
O=C(c1ccc2c(c1)OCCCO2)c1cccs1	99
CN1CCN(CC(O)COCCC23CC4CC(CC(C4)C2)C3)CC1 (centres undefined)	100
CC(C)CCNC(=O)c1cnn2c(C(F)(F)F)cc(-c3ccco3)nc12	96
O=C(O)C1Cc2ccccc2CN1C(=O)c1ccco1 (centres undefined)	101
CC1CCCCC1NC(=O)c1ccc2c(c1)NC(=O)C1CCCN21 (centres undefined)	100
CC(CC1CC(C)(C)OC1=O)c1nc(=S)[nH][nH]1 (centres undefined)	96
CCc1ccc(NC(=O)CCNC(=O)Cn2ccc3ccccc3c2=O)cc1	100
Cc1cccc(N(C(=O)c2ccccc2)C2=NCC(C)S2)c1 (centres undefined)	101
O=C(O)C1CCCN(C(=O)c2ccc(Cl)cc2)C1 (centres undefined)	101
COc1ccc(CCNC(=O)CSc2nc(N)c3c(C)c(C)sc3n2)cc1	95
O=C(CSc1nnc(C2COc3ccccc3O2)o1)N1CCCCC1 (centres undefined)	97
c1ccc(-c2cc(N3CCOCC3)nc(-c3ccccc3)n2)cc1	100
CC(C)N(C(=O)Cn1c(CO)nc2ccccc21)c1ccccc1	100
CCCc1cc(=O)[nH]c(SCC(=O)N2c3ccccc3Sc3ccccc32)n1	99
O=C(CSn1nnnc1-c1ccccc1)c1ccccc1	100
COc1ccc(C2CC(c3cc(OC)cc(OC)c3)=NC(N)=N2)cc1 (centres undefined)	101
CCCCOc1ccc(C(=O)CCN2CCCCC2)cc1	99
Oc1ccc(C=Nc2ccccc2-c2nc3ccccc3[nH]2)c(O)c1	115
Cc1ccc(C(=O)/C=C/Nc2ccc(C(F)(F)F)cc2)cc1	94
Cc1cc(C)c2c(-n3cccc3)n[nH]c2n1	135
CCOC(=O)C1CCCN(C(=O)c2cccc3ccccc23)C1 (centres undefined)	100
COc1cccc(-c2nnc(NC(=O)c3ccc(S(=O)(=O)N4CCCCC4C)cc3)o2)c1 (centres undefined)	108
CC(SCC(=O)NC12CC3CC(CC(C3)C1)C2)C(=O)O (centres undefined)	104

Carrying on:
SMILES	VACV E9 pol inh
Cc1cc(C)c(S(=O)(=O)n2ccnc2)c(C)c1	91
Cc1onc(-c2ccccc2)c1C#N	94
C=CCn1c(C(C)NC(=O)CC)nc2ccccc21 (centres undefined)	105
CCN(CC)S(=O)(=O)c1ccc2c3c(cccc13)C(=O)S2	98
Cc1cc(C)nc(SCCS(=O)(=O)c2nc3ccccc3s2)n1	107
O=C(CC1OC(=O)c2ccccc21)NCc1ccc(Cl)cc1 (centres undefined)	101
O=C1CSC(=O)N1CCN1C(=O)CSC1=O	100
O=C(C1CCN(S(=O)(=O)c2cnc[nH]2)CC1)N(CCc1ccccc1)Cc1ccccc1	101
COc1ccc(C(=O)NCCc2cc3c(C)ccc(C)c3[nH]c2=O)cc1OC	99
O=C(CSc1nc2ccccc2c(=O)n1-c1ccc(F)cc1F)NC1CCCC1	98
Cc1ccccc1CSc1nnc2c(n1)[nH]c1ccccc12	100
CC(=O)N=c1scc(-c2ccccc2)n1-c1cccc2ccccc12	104
Cc1cc(NS(=O)(=O)c2cccc(F)c2)n(-c2ccccc2)n1	90
CC(C)(C#N)N1CCN(c2ccc(Cl)c(Cl)c2)CC1	103
CC1CCc2sc(NC(=O)c3cccs3)c(C(N)=O)c2C1 (centres undefined)	100
CN(C(=O)COC(=O)c1ccc(-c2ccccc2)cc1)c1ccccc1	99
Cc1ccc(Nc2cc(C(=O)N3CC(C)CC(C)C3)c3ccccc3n2)cc1C (centres undefined)	98
Cc1cc(C)n(Cc2c(Cl)cccc2Cl)n1	86
COc1cc(S(=O)(=O)NC2CCCCCC2)c(C)cc1C	94
Cc1ccsc1C(=O)Nc1nccs1	103
CCCSc1nc(C)cc(=O)[nH]1	100&100
COc1ccc(N=c2cc(-c3ccc(OC)cc3)oc3ccc(O)cc23)cc1	63*
CCOC(=O)c1sc(SCC(=O)c2ccc(Cl)cc2Cl)nc1C	102
CCCc1nc2ccccc2[nH]1	104
CC(C(=O)O)n1nnc2ccccc21 (centres undefined)	101
CCCOC(=O)c1ccc(NC(=O)/C=C/c2ccccc2)cc1	100
CCOc1cccc(OCC)c2c(C)nc(C)c1-2	100
O=C(CSc1c2c(nc3cc(Cl)ccc13)CCCC2)NCCCN1CCCCCC1	98
COc1ccc2c(c1)-c1ccccc1S(=O)(=O)N2C	96
O=C(CSc1nncc2ccccc12)Nc1ccccc1	103

Next part (ten carried over from the part before).
SMILES	VACV E9 pol inh
CCCSc1nc(C)cc(=O)[nH]1	100&100
COc1ccc(N=c2cc(-c3ccc(OC)cc3)oc3ccc(O)cc23)cc1	63*
CCOC(=O)c1sc(SCC(=O)c2ccc(Cl)cc2Cl)nc1C	102
CCCc1nc2ccccc2[nH]1	104
CC(C(=O)O)n1nnc2ccccc21 (centres undefined)	101
CCCOC(=O)c1ccc(NC(=O)/C=C/c2ccccc2)cc1	100
CCOc1cccc(OCC)c2c(C)nc(C)c1-2	100
O=C(CSc1c2c(nc3cc(Cl)ccc13)CCCC2)NCCCN1CCCCCC1	98
COc1ccc2c(c1)-c1ccccc1S(=O)(=O)N2C	96
O=C(CSc1nncc2ccccc12)Nc1ccccc1	103
Cn1c(=O)oc2cc(S(=O)(=O)NCCN3CCC(Cc4ccccc4)CC3)ccc21	98
N=C(N)SCc1ccccc1	96
O=C(CN1CCCC1)Nc1cc(C(F)(F)F)cc(C(F)(F)F)c1	107
O=[N+]([O-])c1cccc2c(Br)[nH]nc12	99
O=c1cc(-c2ccccc2)oc2cc(Cl)ccc12	98
CC1SCC(=O)N(c2ccc(C(F)(F)F)cc2)C1=O (centres undefined)	109
Cc1cc(C)c(S(=O)(=O)/N=C2\SCCN2S(=O)(=O)c2c(C)cc(C)cc2C)c(C)c1	100
CCCN(C#N)c1nc(NC(C)C)nc(NC(C)C)n1	100
CCc1oc2cc(O)ccc2c(=O)c1-c1ccc2c(c1)OCCO2	79
C=C(C)c1cccc(C(C)(C)NC(=O)Nc2ccc3c(c2)oc2ccccc23)c1	100

The list goes on; the last two above are carried over.
SMILES	VACV E9 pol inh
CCc1oc2cc(O)ccc2c(=O)c1-c1ccc2c(c1)OCCO2	79
C=C(C)c1cccc(C(C)(C)NC(=O)Nc2ccc3c(c2)oc2ccccc23)c1	100
O=C(NCSc1ccncn1)c1ccccc1	94
O=C(CCn1c(=O)sc2ccccc21)NC1CCCCC1	97
COc1ccc(CCNC(=O)c2ccc3c(SCC(=O)O)c4c(nc3c2)CCCC4)cc1OC	108
CC1CCC(NC(=O)c2ccc(NC(=O)c3ccc(=O)[nH]c3)cc2)CC1 (centres undefined)	109
Cc1ccc2nc(NC(=O)c3ccc(-c4ccccc4)cc3)sc2c1	101
Cc1oc2c(c1C(=O)NCCCn1ccnc1)C(=O)c1ccccc1C2=O	103
c1ccc2c(CNc3ccc(CNc4ncn[nH]4)cc3)cccc2c1	101
CN(C(=O)c1c(Cl)nc2sccn12)C1CCCCC1	100
Cc1ccc(S(=O)(=O)N2CN3CN(C2)CN(S(=O)(=O)c2ccc(C)cc2)C3)cc1	100
Cc1ccc(C(=O)NCC2CCCO2)cc1C (centres undefined)	100
CC(C)(C)OC(=O)N1CCC(CNC(=O)c2ccccc2)CC1	98
CSc1cccc(N2C(=S)NC3c4ccccc4OC24CCCC34)c1 (centres undefined)	92
O=C1CCCC2=C1C(c1cccnc1)C1=C(CCCC1=O)O2	120
CC(C)Cn1c(CCNC(=O)c2ccccc2)nc2ccccc21	97
Cc1cc(C)n(CCC(N)=O)n1	101
COc1ccc(N2CCN(C(=O)c3ccc(NS(=O)(=O)c4cccs4)cc3)CC2)cc1	100
CN1/C(=C/C=N/O)C(C)(C)c2ccccc21	91
S=C1NN=C(c2ccccc2)C(c2ccccc2)N1 (centres undefined)	100
Cc1ccc2sc(NC(=O)C(C)C)nc2c1C	106
Cc1cc(C)c(OCC(O)CNC2CC(C)(C)NC(C)(C)C2)c(C)c1 (centres undefined)	104

Bioassay records as filed in PubChem.

An excerpt (hit frequency here may not be typical).
